Screens as filed in PubChem.
ALR inh = human ALR oxidase inhibition via reduced H2O2; inhibition, % (no concentration beside the values); AID 485317; purified ALR, DTT oxidation, H2O2 HRP-luminol luminescence; P55789; actives 3.8% (n = 290,000);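 active = mean and each replicate at 75% or more; inconclusive = only one of the two met; inactive = neither met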;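 note: stock transfer was 7.5 nL into about 7.5 µL; 0% = neutral wells and 100% = wells with inactivated enzyme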
Target sequence (P55789 whole entry, looked up): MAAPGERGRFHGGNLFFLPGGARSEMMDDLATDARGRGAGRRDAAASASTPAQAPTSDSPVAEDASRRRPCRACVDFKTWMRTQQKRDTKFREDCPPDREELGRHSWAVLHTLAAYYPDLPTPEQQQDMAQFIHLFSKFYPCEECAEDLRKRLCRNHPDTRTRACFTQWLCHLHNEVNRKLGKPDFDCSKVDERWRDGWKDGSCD
rRNA inh HTS = inhibitors of bacterial rRNA selective over humanized ribosomes; AID 720706; E. coli WT GFP vs humanized-ribosome RFP mutants, fluorescence, 24 h; hits give low values; DMSO median 0, no signal -100; GFP signal change (wild-type ribosome), % (no concentration beside the values); actives 1.6% (n = 350,000);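 active = significant combined selectivity score with lowered wild-type GFP, culture density cut under 30%, mutant RFP and density less affected; inactive = any of these conditions unmet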; note: one replicate is shown; some compounds called inactive have numbers as strong as hits
E coli growth = blocks Escherichia coli growth; OD600, 23 h; hits give low values; OD600 absorbance (concentration not given with the values); actives 0.21% (n = 330,000);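 active = OD600 absorbance below the run mean of sample wells minus 3.6 SD, in any replicate, cut at about 0.56 in these data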;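 note: stock transfer was 300 nL into about 60 µL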
FGF22 binding = shifts melting point of recombinant human FGF22; AID 651658; Q9HCT0; actives 1.5% (n = 340,000); calls only at 9.99 µM; recombinant FGF22 thermal shift, SYPRO orange fluorescence; percent of sucrose octasulfate shift, DMSO zero;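 active = melting point raised past a set limit in the mean and every replicate; inconclusive = no clear call; three in four hits are not shown here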
Target sequence (Q9HCT0 whole entry, looked up): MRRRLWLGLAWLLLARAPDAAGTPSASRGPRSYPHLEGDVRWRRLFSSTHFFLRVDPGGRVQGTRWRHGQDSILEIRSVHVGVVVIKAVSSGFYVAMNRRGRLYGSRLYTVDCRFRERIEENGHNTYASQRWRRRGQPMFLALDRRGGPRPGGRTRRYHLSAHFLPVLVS
HNF4A DNA FP = change in binding of human HNF4 alpha to DNA | AID 1224865 | HNF4a-FITC DNA binding, fluorescence polarization, 1 h | activity change, % at 10 µM | P41235 | actives 0.3% (n = 360,000); in the data active = activity change above about 30%, passing the limit was not always enough;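 note: controls were the assay level and a saturating level of protein; the project sought stronger binding though the title names inhibitors; some compounds called inactive have numbers as strong as hits; positive values seem to mean higher polarization but the record does not say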
AF4-AF9 inh = MLL-AF4/AF9 protein interaction inhibition. P42568. AlphaScreen, biotin-AF4 peptide binding to FLAG-AF9. inhibition, % at 10 µM. actives 0.47% (n = 350,000);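 active = every replicate reaching a set inhibition limit, whatever the replicate mean, cut at about 25% in these data; inconclusive = mean inhibition reaches that limit but some replicates miss it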;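 note: 0% = plate neutral control median and 100% = total signal loss; the record names both 10 and 1 µM as test concentration; the first replicate is given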
Target sequence (P42568 whole entry, looked up): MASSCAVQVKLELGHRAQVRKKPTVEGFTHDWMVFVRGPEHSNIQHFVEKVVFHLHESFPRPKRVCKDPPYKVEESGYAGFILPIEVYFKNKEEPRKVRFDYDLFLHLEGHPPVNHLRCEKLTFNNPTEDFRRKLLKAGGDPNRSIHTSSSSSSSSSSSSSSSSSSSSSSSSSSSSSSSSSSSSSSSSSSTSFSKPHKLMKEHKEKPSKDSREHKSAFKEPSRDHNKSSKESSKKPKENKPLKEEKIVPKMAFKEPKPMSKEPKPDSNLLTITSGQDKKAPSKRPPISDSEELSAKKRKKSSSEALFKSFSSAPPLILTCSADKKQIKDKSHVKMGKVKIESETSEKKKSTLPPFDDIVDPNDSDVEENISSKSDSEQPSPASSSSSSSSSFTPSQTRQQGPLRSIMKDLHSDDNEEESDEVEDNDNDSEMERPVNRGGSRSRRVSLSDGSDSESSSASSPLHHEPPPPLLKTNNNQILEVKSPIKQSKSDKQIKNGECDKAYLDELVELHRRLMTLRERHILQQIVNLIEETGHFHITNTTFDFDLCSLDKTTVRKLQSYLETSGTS
Vif A3G = inhibitors of Vif binding to APOBEC3G peptide, primary screen, biochemical, TR-FRET, GST-Vif 1-94, biotin-A3G peptide, dose response retest (AID 1117319); TR-FRET GST-Vif / biotin-A3G peptide binding; higher % means a stronger effect; test concentration not given here; strong numbers were not always called active; inhibition, %; hits with a dose series show IC50 in µM; actives 0.57% (n = 260,000);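 active = above the screen mean plus three standard deviations and confirmed in dose response; inconclusive = results disagree or hit not tested in dose response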;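 note: Vif residues 1-94 fused to GST binding biotinylated APOBEC3G peptide 110-148; 0% = full assay without inhibitor and 100% = GST in place of GST-Vif; retest series ran down from 100 µM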
rRNA inh HTS OD600 = second read-out of rRNA inh HTS, no call of its own (marks repeat the call); OD600 change, %; measured here: OD600 growth;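 optical density of the mix in the first replicate; 0 = DMSO median and -100 = no signal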
rRNA inh HTS RFP = further read-out of rRNA inh HTS, marked with its call; RFP signal change, %; measured here: RFP humanized mutant strains;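 first replicate; 0 = DMSO median and -100 = no signal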
Active calls of the source: *; i = inactive; ? = inconclusive; · = no result given.

structure | E coli growth | FGF22 binding | HNF4A DNA FP | rRNA inh HTS OD600 | rRNA inh HTS | AF4-AF9 inh | Vif A3G | rRNA inh HTS RFP | ALR inh
CN(Cc1ccccc1)C(=O)c1cccc(N2C(=O)NC3CC2(C)Oc2ccccc23)c1 (configuration not stated) | 0.72 | · | -0.8 | · | · | · | 68% | · | -20
CC(=O)c1cn(-c2ccc([N+](=O)[O-])cc2)c(=O)n(C)c1=O | 0.69 | i | 0.7 | · | · | 2.0 | · | · | -1
Cc1[nH]n(-c2ccccc2)c(=O)c1N=Nc1ccc(Cl)cc1 | 0.72 | i | -3.7 | 8 | 8 | 4.5 | -12% | 3.6 | 0
O=C1CN(C(=O)COC(=O)CCC(=O)c2ccc(Cl)cc2)c2ccccc2N1 | 0.71 | i | 2.7 | -3 | -10 | 1.3 | -11% | -0.3 | ·
CC1CCCCC1NC(=O)c1cn(C)c2ccc(S(=O)(=O)N3CCCC3)cc2c1=O (configuration not stated) | 0.71 | · | 6.2 | · | · | · | -5% | · | -1
OC[C@H]1[C@@H](c2ccc(-c3ccccc3)cc2)[C@@H]2CN(Cc3ccccn3)CCCCN12 | · | i | · | 6 | 2 | 2.1 | · | -5.6 | ·
COc1cc(C(=O)OCc2cccc(S(=O)(=O)N3CCOCC3)c2)ccc1OCC(C)C | 0.68 | i | 1.6 | · | · | -0.1 | -21% | · | 1
COc1ccc(CN(C(=O)CCC(=O)N2CCCCC2)c2nccs2)cc1OC | 0.71 | i | -2.7 | 7 | 13 | -2.0 | -6% | 0.2 | 2
CCOc1ccc(-c2nnc(SCC(=O)N(CC)CC)n2N)cc1 | 0.66 | · | -0.7 | · | · | · | -5% | · | -3
Cn1c(CC(=O)Nc2ccccc2F)nnc1SCC(=O)NC1=NCCS1 | · | i | 0.6 | 8 | 11 | 1.1 | 3% | -0.9 | ·
CSc1ncccc1C(=O)Nc1cc(Cl)ccc1N1CCOCC1 | 0.7 | i | -2.2 | -10 | -3 | 2.1 | · | -3.2 | -1
CCOCCCNC(=O)C1(O)c2ccccc2NC(=O)N1c1ccc(C)c(C)c1 (configuration not stated) | 0.69 | i | -3.5 | 2 | -2 | -0.5 | 2% | 0.9 | -14
NS(=O)(=O)c1ccc(CNC(=O)CNC(=O)Cc2ccccc2)cc1 | 0.65 | i | -1.0 | 2 | 2 | -8.2 | 0% | 0.0 | 3
COc1ccc(NC(=O)c2ncn[nH]2)cc1 | 0.67 | · | 0.0 | · | · | · | 4% | · | -7
CCN(CC)CCNC(=O)C(=O)Nc1ccc2c(c1)N(S(=O)(=O)c1cccs1)CCC2 | 0.68 | i | 1.8 | 3 | -2 | 3.8 | -8% | -0.4 | -1
COC(=O)c1[nH]c2ccc(Cl)cc2c1NC(=O)CCN1CCN(C2CCCCC2)CC1 | 0.71 | · | 0.5 | · | · | · | -4% | · | -4
O=[N+]([O-])c1ccc(CN2CC(N3CCN(CC4CC4)CC3)CS2(=O)=O)cc1 (configuration not stated) | · | i | -0.3 | 19 | -7 | 1.3 | 0% | -1.5 | ·
COc1ccccc1/C=C/CN1CCN(Cc2ccc(F)cc2)C(CCO)C1 (configuration not stated) | 0.7 | i | 2.5 | · | · | 4.0 | -2% | · | -4
Cc1noc(C)c1NC(=O)N[C@@H]1CC[C@@H](CC(=O)N2CCCCC2)O[C@H]1CO | · | i | · | 1 | 1 | -1.0 | · | -3.9 | ·
CCCC#Cc1cnc2c(c1)C(=O)N([C@@H](C)CO)C[C@H](C)[C@@H](CN(C)C(=O)NCCC)O2 | · | i | · | 3 | 3 | -2.0 | · | -3.1 | ·
COc1ccc(-c2nc(CS(=O)CC(=O)NCCCN3CC(C)CC(C)C3)c(C)o2)cc1OC (configuration not stated) | 0.73 | · | 3.1 | 6 | 14 | · | ? | -4.3 | 98*
O=C1OC(C(=O)Nc2ccccc2)Cc2ccccc21 (configuration not stated) | 0.66 | i | 1.5 | 4 | -3 | -0.1 | 9% | -0.4 | ·
COc1ccccc1C(=O)Nc1ccc(C(=O)Nc2ccccc2C(=O)O)cc1 | 0.72 | · | -0.8 | -60 | -39 | -2.5 | 2% | -5.0 | ·
O=C(C[C@H]1C[C@@H]2c3cc(NC(=O)CC4CC4)ccc3O[C@@H]2[C@@H](CO)O1)NCCc1ccccc1 | · | i | · | -3 | 1 | -1.7 | · | -2.8 | ·
O=C(Nc1ccccc1)OCCCc1ccccc1 | 0.68 | · | -1.1 | -79 | -54 | -1.0 | · | -20 | -10
Cc1occc1-c1nnc(SCC(N)=O)n1Cc1ccccc1 | 0.68 | · | 1.3 | · | · | · | 1% | · | -1
Cc1ccccc1S(=O)(=O)NCC[C@H]1CC[C@H](NC(=O)C2CCC2)[C@H](CO)O1 | · | i | · | -3 | -1 | 1.8 | · | -3.1 | ·
NS(=O)(=O)c1ccc(CCNC(=O)C(=O)c2cn(CC(=O)N3CCCC3)c3ccccc23)cc1 | 0.7 | i | -0.5 | 5 | 9 | 3.2 | · | 0.3 | -17
O=C(Nc1cccc(F)c1)NC1CCN(Cc2ccccc2)CC1 | 0.68 | i | -1.0 | · | · | 4.5 | 5% | · | -6
Cc1cc(C)cc(N(C(=O)c2csnn2)C(C(=O)NC(C)(C)C)c2cccnc2)c1 (configuration not stated) | 0.67 | i | 1.5 | 7 | 16 | -0.3 | 8% | 0.9 | -2
C/C(=N\NC(=O)Cc1cc(=O)[nH][nH]1)c1cccc([N+](=O)[O-])c1 | · | i | -0.4 | 11 | 15 | 1.1 | · | -2.9 | 18
Cc1noc(C)c1S(=O)(=O)N(C)C[C@@H]1OCCCC[C@H](C)Oc2ccc(NS(=O)(=O)c3cccs3)cc2C(=O)N([C@H](C)CO)C[C@@H]1C | · | i | · | -1 | 1 | 3.8 | · | 4.0 | ·
CCOc1ccc(S(=O)(=O)N/N=C(\C)Cc2ccc(OC)cc2)cc1 | · | i | 0.4 | 14 | 9 | 0.2 | 7% | 0.4 | ·
C[C@@H]1CCCCO[C@@H](CN(C)S(C)(=O)=O)[C@@H](C)CN([C@@H](C)CO)C(=O)c2cc(NS(=O)(=O)c3ccc(F)cc3)ccc2O1 | · | i | · | -5 | -2 | 1.4 | · | 0.5 | ·
CCNS(=O)(=O)c1cc(Br)ccc1OC | 0.74 | · | -1.5 | · | · | · | 4% | · | -9
OC[C@@H]1[C@@H](c2ccc(-c3cccnc3)cc2)[C@H]2CN(CC3CC3)CCCCN12 | · | i | · | -6 | 8 | 0.5 | · | 4.4 | ·
O=C(CSc1nc2ccccc2s1)Nc1cc(S(=O)(=O)N2CCOCC2)ccc1O | 0.69 | i | -0.5 | -75 | -51 | 7.2 | 32% | -24 | ·
CCc1cccc(CC)c1NC(=O)C1CSC2(C)CCC(=O)N12 (configuration not stated) | · | i | 2.3 | 10 | 0 | -0.1 | · | -1.9 | -18
CCOC(=O)Cc1csc(SCC(=O)NC2CCCC2)n1 | 0.69 | i | -0.1 | 0 | 3 | -1.8 | 0% | 0.3 | ·
CCC(=O)Nc1cccc(C2=NOC3(C2)C[C@@H](C(N)=O)N(C(=O)c2ccc(OC)cc2)C3)c1 (some centres not stated) | · | i | 0.8 | 5 | 9 | -5.0 | -9% | 3.9 | -22
C[C@@H]1CN([C@H](C)CO)C(=O)Cc2cc(NS(=O)(=O)c3ccc(Cl)cc3)ccc2O[C@@H]1CN(C)Cc1ccccc1 | · | i | · | -26 | -5 | 2.6 | · | 8.6 | ·
COc1ccc(/C(O)=C2/C(=O)C(=O)N(c3ccccn3)C2c2ccc(C(C)C)cc2)cc1 (configuration not stated) | 0.68 | i | -3.0 | 15 | 7 | 0.2 | · | 5.8 | ·
O=C(CSc1n[nH]c(-c2ccccc2)n1)Nc1ncc(Br)cc1Br | 0.7 | · | -1.8 | · | · | · | 2% | · | 2
Cc1noc(C)c1COc1ccc2ccc(=O)oc2c1 | 0.69 | i | 1.3 | 10 | 13 | -2.9 | · | -0.1 | -6
CC(=O)Nc1ccc(-c2ccnc3c2CC(C(=O)Nc2ccc(Cl)c(C(F)(F)F)c2)O3)cc1 (configuration not stated) | · | i | -2.3 | -21 | -10 | -1.2 | · | -0.2 | ·
COc1ccc(-c2cc(C(=O)c3c(N)n(C)c(=O)n(C)c3=O)c3ccccc3n2)cc1 | 0.61 | i | 2.8 | -2 | 6 | 6.7 | · | 1.1 | 1
COCCOC(=O)c1c(NC(=O)CN(C)c2ccccc2)sc(C(N)=O)c1C | 0.63 | i | 0.9 | 3 | 3 | -2.7 | -22% | -16 | -5
CCCCCOc1ccc(C(=O)OC(C)C(=O)NCc2ccco2)cc1 (configuration not stated) | 0.71 | i | 0.6 | 2 | -2 | -3.5 | · | 0.9 | 0
NS(=O)(=O)c1ccc(NCc2ccccc2OCc2ccc(F)cc2)cc1 | 0.7 | · | -0.1 | · | · | · | 2% | · | -4
Cc1ccccc1OCC(=O)OCC(=O)Nc1ccc(N2CCOCC2)cc1 | 0.69 | i | 2.5 | 13 | 12 | 1.3 | 2% | 3.1 | 55

New compounds follow.
structure | E coli growth | FGF22 binding | HNF4A DNA FP | rRNA inh HTS OD600 | rRNA inh HTS | AF4-AF9 inh | Vif A3G | rRNA inh HTS RFP | ALR inh
CCOc1ccc(-n2c(=O)c3sccc3n(CC(=O)NCC3CCCO3)c2=O)cc1 (configuration not stated) | 0.7 | i | 0.9 | 9 | 5 | -0.2 | · | -0.3 | ·
Cc1ccc(-c2nc(N)sc2-c2ccccc2)cc1C | 0.7 | · | 4.7 | · | · | · | -1% | · | 39
Cc1cc(Nc2ccc(Cl)cc2)nc(N2CCOCC2)n1 | 0.7 | i | 0.1 | 10 | -1 | 0.8 | -7% | 3.0 | -3
Cc1cc(C)c(S(=O)(=O)NCC2CCC(C(=O)NCCCN3CCC(C)CC3)CC2)c(C)c1 (configuration not stated) | 0.7 | i | 0.6 | 9 | 7 | 1.5 | -2% | -0.4 | -16
COCCNC(=O)CSc1cc(=O)n(C)c2cc(Cl)ccc12 | 0.7 | i | -1.3 | 3 | 2 | -0.8 | -3% | -2.5 | -9
S=C(NNC(=S)NC1CC2C=CC1C2)NC1CC2C=CC1C2 (configuration not stated) | 0.63 | i | 0.8 | -15* | -48* | 1.8 | ? | -13* | 9
O=C(Nc1ccc2c(c1)[C@H]1C[C@H](CC(=O)N3CCc4ccccc4C3)O[C@@H](CO)[C@H]1O2)C1CCOCC1 | · | i | · | 0 | 3 | -2.5 | · | 1.0 | ·
Cn1c(=O)c([N+](=O)[O-])c(NCc2ccccc2Cl)c2ccccc21 | 0.62 | i | -3.2 | 21* | -29* | 2.2 | 16% | -5.5* | -2
C[C@@H]1CCCCO[C@@H](CN(C)S(=O)(=O)c2ccc(Cl)cc2)[C@H](C)CN([C@@H](C)CO)C(=O)c2cc(NC(=O)c3ccccc3)ccc2O1 | · | i | · | 3 | 0 | -0.7 | · | 0.3 | ·
COc1ccc(C)cc1NC(=O)c1cc2ccccc2o1 | 0.69 | · | 1.3 | · | · | · | -4% | · | -14
O=C(CN1C(=O)COc2ccc(S(=O)(=O)N3CCCC3)cc21)NCc1ccccn1 | 0.68 | i | 1.0 | 3 | 8 | -2.5 | -1% | 2.5 | 1

Another view of part of the listing above:
E coli growth,FGF22 binding,HNF4A DNA FP,rRNA inh HTS OD600,rRNA inh HTS,AF4-AF9 inh,Vif A3G,rRNA inh HTS RFP,ALR inh,smiles
0.63,i,0.8,-15*,-48*,1.8,?,-13*,9,S=C(NNC(=S)NC1CC2C=CC1C2)NC1CC2C=CC1C2 (configuration not stated)
0.7,i,0.1,10,-1,0.8,-7%,3.0,-3,Cc1cc(Nc2ccc(Cl)cc2)nc(N2CCOCC2)n1
0.7,i,-1.3,3,2,-0.8,-3%,-2.5,-9,COCCNC(=O)CSc1cc(=O)n(C)c2cc(Cl)ccc12

Some of the compounds tested (hit frequency here may not be typical).
